Compound activity from PubChem BioAssay.
A1 inh: caspase 3/7 activation in MEF A1-2A-BIM cells, primary screen, A1 inhibitor project, cell-based, luminescence, HTS. Caspase-Glo 3/7 luminescence, 3 h; percent of clofoctol response, vehicle zero. caspase activation, % (test concentration not listed). hit rate 0.066% among 330,000. AID 2462, 2010;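 active = over half of replicate activation scores above 10%, or exactly half above 10 with the replicate mean above 10; inconclusive = replicate mean below 10 yet half the replicates above 10; inactive = over half of replicates below 10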;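 also: wells of about 30 µL received 50 nL stock; many hits fall short of the cut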
E coli growth: E. coli growth inhibition, primary screen, OD600; Escherichia coli growth, 23 h; active compounds read low; hit rate 0.21% among 330,000; OD600 absorbance (no concentration beside the values);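 active = OD600 absorbance below the run mean of sample wells minus 3.6 SD, in any replicate, cut at about 0.56 in these data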;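 also: stock transfer was 300 nL into about 60 µL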
HNF4A DNA FP: change in binding of human HNF4A to DNA, primary screen, biochemical, fluorescence polarization, FITC-DNA | 1 h | Hepatocyte nuclear factor 4-alpha (Homo sapiens), P41235 | activity change, % at 10 µM | hit rate 0.3% among 360,000 | AID 1224865, 2016; in the data active = activity change above about 30%, passing the limit was not always enough;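 also: controls were the assay level and a saturating level of protein; the project sought stronger binding though the title names inhibitors; some compounds called inactive have numbers as strong as hits; positive values seem to mean higher polarization but the record does not say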
Target sequence (P41235 whole entry, looked up): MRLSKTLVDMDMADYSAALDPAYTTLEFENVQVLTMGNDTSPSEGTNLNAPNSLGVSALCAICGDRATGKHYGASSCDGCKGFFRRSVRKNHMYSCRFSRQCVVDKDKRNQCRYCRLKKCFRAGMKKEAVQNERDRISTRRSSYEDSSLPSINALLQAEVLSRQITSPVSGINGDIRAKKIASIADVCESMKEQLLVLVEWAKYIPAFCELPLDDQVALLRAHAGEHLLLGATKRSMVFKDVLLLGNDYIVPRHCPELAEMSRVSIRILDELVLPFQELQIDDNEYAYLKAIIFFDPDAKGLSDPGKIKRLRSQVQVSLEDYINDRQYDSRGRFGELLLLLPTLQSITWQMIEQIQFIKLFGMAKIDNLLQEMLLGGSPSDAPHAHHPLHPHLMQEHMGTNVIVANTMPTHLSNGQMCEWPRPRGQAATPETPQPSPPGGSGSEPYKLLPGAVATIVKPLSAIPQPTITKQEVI
UCH37 inh: inhibitors of human UCH37 deubiquitinase, primary screen, biochemical, Ub-AMC cleavage, fluorescence; inhibition, % (test concentration not listed); purified proteasome/UCH37; hit rate 0.33% among 330,000; Ubiquitin carboxyl-terminal hydrolase isozyme L5 (Homo sapiens), Q9Y5K5;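 active = mean of two replicates above 20%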;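 also: 0% = compound-free wells with enzyme and 100% = wells lacking proteasome; stock transfer was 100 nL into about 20 µL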
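Material: human UCH37 enzyme supplied as purified proteasome complex / Amount: 0.15 nM proteasome as dispensed / Buffer or medium: pH 7.4 Tris-HCl (50 mM) with ovalbumin, ATP-MgCl2, DTT / Times: preincubation 30 min, reaction 25 min, room temperature / Technique: AMC fluorescence from Ub-AMC cleavage, excitation 355 nm, emission 460 nm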
Vif A3G: inhibitors of Vif binding to APOBEC3G peptide, primary screen, biochemical, TR-FRET, GST-Vif 1-94, biotin-A3G peptide, dose response retest (AID 1117319); hit rate 0.57% among 260,000; Virion infectivity factor (Human immunodeficiency virus type 1 group M subtype B (isolate …; TR-FRET GST-Vif / biotin-A3G peptide binding; higher % means a stronger effect; test concentration not given here; strong numbers were not always called active; inhibition, %; hits with a dose series show IC50 in µM;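 active = above the screen mean plus three standard deviations and confirmed in dose response; inconclusive = results disagree or hit not tested in dose response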;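 also: Vif residues 1-94 fused to GST binding biotinylated APOBEC3G peptide 110-148; 0% = full assay without inhibitor and 100% = GST in place of GST-Vif; retest series ran down from 100 µM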
Beta2AR agonist: beta2AR agonists driving receptor internalization, primary screen, cell-based, FAP fluorogen, flow cytometry; Am2.2-beta2AR cells; reference of the scale not given here; response, % (no concentration beside the values); hit rate 0.43% among 340,000; AID 504454, 2011;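 active = response above a set limit, near 3 SD of response in nonfluorescent compounds, cut at about 42% in these data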;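 also: stock transfer was 100 nL into about 11 µL; a reference agonist was the positive control; negative values mostly stem from fluorescent compounds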
Target sequence (P07550 whole entry, looked up): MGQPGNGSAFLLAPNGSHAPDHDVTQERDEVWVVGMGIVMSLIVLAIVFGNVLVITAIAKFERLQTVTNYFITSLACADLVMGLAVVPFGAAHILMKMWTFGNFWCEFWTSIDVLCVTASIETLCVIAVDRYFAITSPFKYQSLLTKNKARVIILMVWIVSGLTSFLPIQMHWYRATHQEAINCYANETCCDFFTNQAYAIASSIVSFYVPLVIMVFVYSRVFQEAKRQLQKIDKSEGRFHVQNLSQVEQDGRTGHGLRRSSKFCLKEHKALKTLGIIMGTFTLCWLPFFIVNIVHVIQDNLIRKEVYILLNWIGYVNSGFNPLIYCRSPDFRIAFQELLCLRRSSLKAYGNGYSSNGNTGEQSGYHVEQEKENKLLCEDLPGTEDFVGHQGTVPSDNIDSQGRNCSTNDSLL
LANA-H2B inh: blockers of LANA interaction with H2A/H2B – biochemical, FP readout, HTS, primary screen | Protein LANA1 (Human herpesvirus 8 type P (isolate GK18)), Q9QR71 | cell-free LANA-H2A/H2B peptide, fluorescence polarization | inhibition, % (test concentration not listed) | hit rate 0.6% among 320,000 | AID 2629, 2010; in the data active = inhibition mostly above about 10%, no sharp cut-off; inactive = mostly below about 6.7%;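 also: stock transfer was 7.5 nL into about 10 µL; 0% = median of vehicle wells and 100% = median of positive control wells; one replicate is shown; the record names a cut of 25% in any replicate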
* = called active by the depositor; i = inactive; ? = inconclusive; nt = not tested or not shown.

The first 2 records (preview)
compound	A1 inh	E coli growth	HNF4A DNA FP	UCH37 inh	Vif A3G	Beta2AR agonist	LANA-H2B inh
CCOC(=O)Cc1csc(NC(=O)C(C)(C)CC)n1	0.3	0.658	-0.9	4.2	-3.8%	-4.5	-2.5
COc1ccc2nc(NC(=O)C3CSC4(C)CCC(=O)N34)sc2c1 (stereo not drawn)	-0.7	0.662	1.6	-0.4	-0.8%	-3.4	-0.2

This part in full (from the top)
compound	A1 inh	E coli growth	HNF4A DNA FP	UCH37 inh	Vif A3G	Beta2AR agonist	LANA-H2B inh
CCOC(=O)Cc1csc(NC(=O)C(C)(C)CC)n1	0.3	0.658	-0.9	4.2	-3.8%	-4.5	-2.5
COc1ccc2nc(NC(=O)C3CSC4(C)CCC(=O)N34)sc2c1 (stereo not drawn)	-0.7	0.662	1.6	-0.4	-0.8%	-3.4	-0.2
COc1ccc(C(=O)Nc2ccc(Cl)cc2C(=O)N2CCCC(C)C2)cc1OC (stereo not drawn)	1.1	0.653	-1.7	-1.7	0.9%	-6.6	nt
O=C(Nc1ccccc1O)c1csc2c1CCCC2	-2.7	0.655	-1.9	1.5	nt	-4.1	1.1
O=C(OCc1ccc(F)cc1)c1ccc2c(c1)-c1ccccc1C2=O	-2.4	0.731	-4.5	-4.5	10.7%	-6.0	-0.1
CC(C)N1CC(C(=O)Nc2nc3ccccc3s2)CC1=O (stereo not drawn)	1.2	0.703	6.2	2.5	-2.4%	-1.9	-0.4
COC(=O)c1ccccc1S(=O)(=O)NNC(=O)C1COc2ccccc2O1 (stereo not drawn)	nt	0.694	1.8	1.5	nt	7.3	nt
Cc1ccc2c(c1)[C@H]1[C@H](CO2)[C@H](c2ccccc2)[C@]2(C)C(=O)N(Cc3ccc(Cl)cc3)CC(=O)N12	-0.7	nt	1.1	3.4	nt	2.2	-1.9
CCOC(=O)c1c(-c2cccc([N+](=O)[O-])c2)cn2ccccc12	0.3	0.688	1.6	0.2	1.8%	5.7	-0.7
O=C(c1cccs1)c1no[n+]([O-])c1C(=O)c1cccs1	-0.7	0.631	-2.1	5.7	7.0%	31.7	2.8
CCOC(=O)C1C(=O)OC(C)(C)C1C(CC)C(=O)c1c(C)cc(C)cc1C (stereo not drawn)	0.6	0.671	0.4	4.8	0.5%	5.2	-4.8
COc1ccc(/C=C2\CCCc3c2nc2ccccc2c3C(=O)O)cc1OC	0.0	nt	nt	nt	?	nt	90.5*
COc1cccc(-n2ccnc2SCC(=O)Nc2ccccc2F)c1	0.6	0.69	2.9	1.3	nt	4.2	-1.1
O=C(NNC(=O)c1ccc(F)cc1F)c1ccc2c(c1)OCO2	0.9	0.681	-1.7	-1.7	4.3%	1.5	0.7
Cc1nn(-c2ccccc2)c(Cl)c1/C=N/NC(=O)c1ccn[nH]1	-13.0	nt	-1.0	nt	-9.2%	-5.1	1.8
CCCCOC(=O)c1ccc(NC(=O)c2cc(Cl)ccc2OC)cc1	-0.2	0.797	2.3	-0.8	0.6%	-2.2	2.3
CC(C)N(Cc1ccccc1)C(=S)Nc1ccc(F)cc1	0.1	0.704	-1.8	3.0	25.4%	2.7	-3.0
CCOC(=O)CSC1=N/C(=C\c2ccc(OC)c(OC)c2)C(=O)N1C	1.0	0.681	-1.4	4.4	?	4.5	-0.5
COc1cc(Cl)c(C)cc1NC(=O)CCCn1c(=O)oc2ccccc21	-0.1	0.636	2.8	2.3	nt	-2.3	nt
COc1cccc(OC)c1C(=O)Nc1cc(C)on1	0.0	0.746	-1.4	-5.4	6.8%	5.2	5.8
COc1ccccc1N1CCN(CC(O)COCCOc2ccc(Br)cc2)CC1 (stereo not drawn)	-0.8	0.684	5.7	2.4	79.3%	-3.5	-4.1
CCN(CC)C1CCN(C(=O)CCc2nnc(CCCCc3ccccc3)o2)C1 (stereo not drawn)	0.2	0.681	0.2	-1.2	5.9%	0.4	5.4
Cc1sc2ncn(CC(=O)NCC3COc4ccccc4O3)c(=O)c2c1S(=O)(=O)N1CCCCC1 (stereo not drawn)	0.1	0.642	-1.9	0.2	2.9%	4.6	-0.3
Cn1cnnc1SCC(=O)Nc1ccc(Oc2ccccc2)cc1	-0.7	0.661	-4.7	0.3	nt	-2.8	8.8
O=C1[C@H]2C(c3ccccc3)=NN(c3ccccc3)[C@H]2C(=O)N1c1ccccc1	-0.5	0.665	-4.8	i	12.8%	1.3	-0.8
O=C(Nc1ccccc1F)c1ccc(CN2CCc3ccccc3C2)cc1	-4.4	0.684	-0.5	-0.5	-7.5%	-3.0	-0.1
O=S(=O)(NC1CCCCC1N1CCN(c2ccc(F)cc2)CC1)c1ccccc1 (stereo not drawn)	0.0	0.708	1.8	0.9	nt	14.1	-5.1
Cc1c(NC(=O)CSCc2ccc(Cl)cc2Cl)cccc1C(=O)O	-0.3	0.626	2.6	3.5	nt	1.9	-1.3
Cc1ccc(C)c(NC(=S)NC(=O)c2cncc(Br)c2)c1	-0.3	0.675	0.7	1.8	nt	-0.5	1.8
CCN(CC)CCCNCC(=O)Nc1cc(C)on1	0.0	0.672	0.5	-0.4	nt	0.3	-0.4
O=C(Cc1ccc(NC(=O)C2CCN(C(=O)c3ccccc3)CC2)cc1)Nc1cccc(C(=O)N2CCCCC2)c1	nt	0.7	-0.3	-0.7	nt	-9.7	nt
O=C(O)c1ccccc1C(=O)N1CCN(Cc2ccc3c(c2)OCO3)CC1	nt	0.68	0.3	0.2	-6.0%	-5.4	nt
Cc1cc(Cl)ccc1OC(C)C(=O)Nc1cnn(CCCC(=O)O)c1 (stereo not drawn)	0.2	0.702	6.8	-2.4	nt	-1.2	1.3
CCCCn1c(NC(=O)c2ccc(Br)o2)c(S(=O)(=O)c2ccccc2)c2nc3ccccc3nc21	0.4	0.748	-2.8	-102.1	?	-3.0	5.9
CCN(CCO)Cc1csc2ccc(Cl)cc12	0.8	0.657	1.9	0.7	1.7%	-4.7	2.3
Cc1ccc2c(c1)c1nnc(SCC(=O)N3CCCc4ccccc43)nc1n2CC(=O)O	0.2	0.641	2.1	11.4	-0.2%	-6.8	2.7
O=C1CC(N2CCSCC2)C(=O)N1c1ccccc1 (stereo not drawn)	0.3	0.654	-0.1	3.9	2.5%	-0.2	-1.7
CCCCn1nc(C(=O)N(CC(C)C)c2c(N)n(CCCC)c(=O)[nH]c2=O)c2ccccc2c1=O	nt	0.673	-4.2	5.0	-3.2%	1.6	nt
COc1ccccc1N1CCN(S(=O)(=O)CCNC(=O)c2cc(OC)c(OC)c(OC)c2)CC1	3.4	0.74	-3.1	1.2	nt	-4.5	5.4
COc1ccc(C(C)(C)C)cc1NC(=O)C1CCCO1 (stereo not drawn)	-0.9	0.711	2.6	1.7	nt	2.7	-0.7
COc1ccc(OC(=O)c2c(C)nn(-c3ccccc3)c2C)cc1	-0.9	0.649	-0.3	1.5	nt	-2.0	3.0
COc1ccc(C(=O)CCC(=O)Nc2ccc(N3CCCCC3)cc2)cc1OC	0.3	0.711	-0.4	4.0	nt	72.3*	7.3
CCN(CC)C(=O)CSc1nnc(-c2ccco2)o1	0.6	0.703	1.5	-0.6	-2.9%	-9.0	-1.3
Cc1nn(-c2ccccc2)c(N2CCCC2)c1/C=N/Nc1ccc(S(=O)(=O)Nc2ccccc2)cc1[N+](=O)[O-]	0.1	nt	-2.2	nt	nt	-9.6	-26.0
COc1ccc2nc(/N=C/c3c(C)[nH]n(-c4ccc(C)cc4C)c3=O)sc2c1	-0.8	nt	-2.0	nt	nt	-2.4	0.8
O=C(N/N=C\c1coc2ccccc2c1=O)c1ccco1	0.4	nt	-0.2	nt	nt	-0.7	-3.8
CN1C(=O)NC(c2ccc(C(F)(F)F)cc2)C2=C1CC(C)(C)CC2=O (stereo not drawn)	-0.4	0.685	0.4	2.2	1.1%	-5.2	-3.1
CCN(CC(=O)NCc1ccc(F)cc1)C(=O)C1CCN(S(=O)(=O)c2ccc(C(C)C)cc2)CC1	nt	0.696	1.5	1.3	3.2%	-1.9	nt
CC(/C=N/NC(=O)c1cc(-c2ccccc2)nc2ccccc12)=C\c1ccco1	-0.8	nt	4.3	nt	nt	16.6	-0.9
CCCN(CC(=O)Nc1ccccc1C)C(=O)CCCNC(=O)c1ccc(Cl)cc1	nt	0.682	-3.2	5.1	-0.6%	-1.0	nt
CCOC(=O)N1CCN(C(=O)c2cccc(N3C(=O)NC4CC3(C)Oc3ccc(Cl)cc34)c2)CC1 (stereo not drawn)	-1.2	0.627	0.9	0.5	nt	-4.9	2.6
CCc1nnc(NC(=O)[C@@H](NC(=O)c2cccc(S(=O)(=O)N3CCOCC3)c2)C(C)C)s1	0.6	nt	-2.0	2.4	6.3%	0.7	-3.7
O=C(c1cc(-c2cccc(O)c2)on1)N1CCCC1	-5.0	0.638	3.0	-0.1	nt	1.1	2.4
CCCCN(CCCNc1ncnc2nc[nH]c12)c1ccccc1	-0.3	0.69	1.9	7.2	-3.9%	6.5	1.8
CCN1C(=O)[C@@H]2[C@@H](c3ccc(-c4ccc(OC)cc4)c(OC)c3)N3CCCC[C@@]3(C(=O)OC)[C@@H]2C1=O	-0.1	nt	6.5	1.6	nt	11.7	-2.0
COC(=O)C1(C)CN(S(=O)(=O)c2ccc(C)cc2)c2cc(OC)ccc2C1=O (stereo not drawn)	1.0	0.702	-1.2	-15.1	3.0%	-0.4	-4.1
CCOC(=O)C1(Cc2ccccc2C)CCCN(S(=O)(=O)c2cccnc2)C1 (stereo not drawn)	1.2	0.667	-0.7	2.8	6.3%	1.5	-3.6
COc1ccc(NC(=O)CSc2ncnc3c2sc2ccccc23)c(OC)c1	0.0	nt	4.5	nt	10.2%	11.0	1.1
Cc1cc(C(C)(C)C)c(O)c(C(C)(C)C)c1	0.6	0.715	0.4	0.9	17.9%	3.4	-8.3
NC(=O)CSc1nnc(-c2ccoc2)o1	0.2	0.722	-5.5	7.0	2.7%	-2.5	-2.6

More records follow:
compound	A1 inh	E coli growth	HNF4A DNA FP	UCH37 inh	Vif A3G	Beta2AR agonist	LANA-H2B inh
O=C(NCc1ccccc1)C(c1cccnc1)N(C(=O)c1csnn1)c1ccc(F)cc1 (stereo not drawn)	-0.1	0.64	-4.1	1.1	-12.3%	-1.4	-2.2
COC(=O)c1cccc(Oc2cccc(C(F)(F)F)c2)n1	0.5	0.715	-0.3	3.0	20.7%	5.7	-2.0
Cc1ccc(C)c(OCc2n[nH]c(=S)o2)c1	0.2	0.776	-1.7	2.0	-12.2%	16.9	9.7
O=S(=O)(NCC1CCCO1)c1ccc(Cl)c(C(F)(F)F)c1 (stereo not drawn)	1.2	0.657	-2.4	0.8	-4.4%	-0.5	-3.1
CC1(c2ccccc2)NC(=O)N(CC(=O)NNC(=O)c2ccccc2)C1=O (stereo not drawn)	-0.8	0.679	-1.7	-0.4	nt	-5.8	-3.8
COc1ccc(N(C)S(=O)(=O)c2cccc(C(=O)NCC3CCCCC3)c2)cc1	nt	0.732	-1.6	4.3	6.9%	-8.9	nt
C=CCN1CCOc2ccc(C)cc2S1(=O)=O	nt	0.672	-3.0	1.8	nt	8.9	nt
